# BJeLR lethal – BJeLR cell viability loss; actives 0.17% (n = 300,000); AID 1554; BJeLR (HRASV12) viability, CellTiter-Glo ATP luminescence, 48 h; reference of the scale not given here; inhibition, % (no concentration beside the values);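 active = replicate mean above 50%; inconclusive = above 50% but judged a plate artefact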;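 note: 50 nL library stock added to about 25 µL; numbers are from one replicate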
# PrP 5UTR inh – inhibition of PrP 5' UTR reporter expression; cell-based PrP 5' UTR mRNA reporter, plate reader; inhibition, % (concentration not given with the values); actives 0.35% (n = 340,000);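 active = every replicate at 50% or more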;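 note: 0 = median of the neutral control wells; tested in H4 reporter cells; numbers are from one replicate; inactives centre near -14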
# Autofluor counter – counter-screen for toxin protease inhibitors: compound fluorescence; actives 3.1% (n = 360,000); fluorescence intensity (no concentration beside the values); compound autofluorescence counterscreen, microsphere flow cytometry; hits give high values;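 active = at least 3 SD above the mean of all compounds, about 16000 in these data; inconclusive = too few beads counted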;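 note: 100 nL of 1 mM stock went into each well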
# Sa ugtP lethal – kills S. aureus RN4220 lacking UgtP; AID 1259309; S. aureus RN4220 ugtP deletion, OD600 growth, 16 h; some inactives read as strong as hits; growth inhibition, % (test concentration not listed); actives 0.54% (n = 330,000);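 active = z-score under -3 and OD600 up to 0.15 on both plates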;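 note: plate controls were untreated wells for no effect and antibiotic for full effect; wells of about 80 µL received 100 nL stock; the first replicate is given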
# Mtb hypoxia inh – inhibitors of hypoxia-regulated fluorescent reporter in Mycobacterium tuberculosis | M. tuberculosis hypoxia-regulated fluorescent reporter, fluorescence | actives 0.1% (n = 300,000) | fluorescence inhibition, % (test concentration not listed);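 active = 35 to 45% if threefold the growth effect, above 45% if 1.5-fold the growth effect; inactive = the rest, general growth blockers included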;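 note: wells of about 50 µL received 100 nL stock; 0% = vehicle wells and 100% = reference inhibitor wells; whole bacteria with a GFP reporter of the hypoxia response; strong numbers were not always called active; many hits fall short of the cut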
# Sa RN4220 lethal – S. aureus RN4220 growth inhibition; OD600, 16 h; inhibition, % (no concentration beside the values); actives 0.33% (n = 330,000);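 active = z-score of -3 or lower and OD600 up to 0.18 on both plates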;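 note: plate controls were untreated cells for no effect and reference antibiotic for full effect; stock transfer was 100 nL into about 80 µL; one replicate is shown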
# Mtb hypoxia inh growth – also measured in Mtb hypoxia inh; calls as there; growth inhibition, %; measured here: M. tuberculosis growth (absorbance);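 0% = vehicle and 100% = reference antibiotic; read after six days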
# An asterisk follows results filed as active; u = inconclusive; x = no result given.
SMILES,BJeLR lethal,PrP 5UTR inh,Autofluor counter,Sa ugtP lethal,Mtb hypoxia inh,Mtb hypoxia inh growth,Sa RN4220 lethal
Cc1nc2scc(-c3ccco3)c2c(=O)n1N=CN(C)C,x,x,x,-2,4,2,4.3
CC1(C)Cc2nc(-c3ccccc3)nc(SCC(=O)N3CCCC3)c2CO1,8,-13,3552,4,6,-6,1.0
O=C(CSc1nc2ccsc2c(=O)n1Cc1ccccc1)NCC1CCCO1 (stereo not drawn),-11,1,4345,2,-9,11,-2.9
N#CC1(P(=O)(c2ccccc2)c2ccccc2)CCCC1,4,-16,3490,9,9,13,4.3
C/C(=N\NC(=O)C(O)c1ccccc1)c1cccnc1 (stereo not drawn),4,-1,5067,x,x,x,x
O=C(NN=Cc1ccc2c(c1)OCO2)c1ccc(Cn2cc([N+](=O)[O-])cn2)o1,x,x,x,1,4,8,3.2
N#Cc1cccc(NCC(=O)Nc2ccc3c(c2)OCCO3)c1,4,-102,4385,1,10,0,-1.0
COc1ccc2[nH]c(=O)c(CN(CCO)C(=O)c3ccccc3F)cc2c1,-3,-17,3557,-3,5,7,-9.7
Cc1cc(C(=O)COC(=O)c2ccc(N)cc2)c(C)n1-c1c(C)n(C)n(-c2ccccc2)c1=O,-13,-16,2148,0,1,-2,3.0
Cc1ccc(S(=O)(=O)CCC(=O)OCc2nc(N)nc(Nc3ccccc3C)n2)cc1,-3,-21,5567,0,6,5,2.9
Cc1noc(C)c1NC(=O)N(C)C[C@H]1Oc2c(NC(=O)C3CCCCC3)cccc2C(=O)N([C@H](C)CO)C[C@@H]1C,x,-18,2968,16,3,2,3.9
COc1ccc(C(=O)CCC(=O)NCc2cc(OC)cc(OC)c2)cc1,0,-2,5808,4,4,7,0.7
Cc1ccc(OCCNC(=O)c2ccccc2N)cc1,12,19,5564,4,x,x,0.9
O=C(CSc1nc2ccccc2c(=O)n1-c1ccccc1)N1CCCC1,-3,-20,9050,-4,3,4,2.0
CCCCC(NC(C)=O)c1nc2ccccc2[nH]1 (stereo not drawn),5,-17,6040,1,10,5,-13
Cc1ccc2c(CN3CCN(Cc4ccccc4)CC3)cc(=O)oc2c1C,-5,-19,4161,17,2,-3,2.7
Cc1cccc(CC(=O)N2CCN=C2SCc2ccc([N+](=O)[O-])cc2)c1,-7,4,2463,3,10,4,-0.1
Cc1cccc(NC(=O)CSc2ncnc3nc[nH]c23)c1,-2,13,2881,0,-6,7,12
Cc1ccc(N2C(=O)N3[C@H](c4ccc(F)cc4)[C@@H]4C(=O)N(C5CCCCC5)C(=O)[C@@H]4[C@]3(Cc3ccccc3)C2=O)cc1,-1,-33,4692,x,x,x,x
COc1ccc(NS(=O)(=O)c2cccc(C(=O)NNC(=O)c3ccc(O)c(Cl)c3)c2)cc1,x,-9,2740,14,4,3,11
Cn1c(CO)nc2c3ccccc3ccc21,-2,-22,4143,0,7,19,4.2
COc1ccc(NC(=O)C(CC(C)C)NC(=O)c2ccccc2C)cn1 (stereo not drawn),-5,-9,4346,4,x,x,7.4
NN=C(Cc1nc2ccccc2[nH]1)c1ccc([N+](=O)[O-])cc1,x,x,x,-11,-9,-4,3.8
C#CCOCCOCCOCCNc1nc(N2CCN(C(=O)C(CCCCN)n3cc(C(N)CO)nn3)CC2)nc(N2CCN(C(=O)C(CCCCN)n3cc(C(N)CC(C)C)nn3)CC2)n1 (stereo not drawn),x,x,x,3,8,11,4.6
Cn1c(N2CCC(C(N)=O)CC2)nc2c1c(=O)n(Cc1ccc(Cl)cc1)c(=O)n2C,0,-7,u,10,1,4,-2.1

# Part of the list above, with tabs.
Structure	BJeLR lethal	PrP 5UTR inh	Autofluor counter	Sa ugtP lethal	Mtb hypoxia inh	Mtb hypoxia inh growth	Sa RN4220 lethal
Cc1cccc(CC(=O)N2CCN=C2SCc2ccc([N+](=O)[O-])cc2)c1	-7	4	2463	3	10	4	-0.1
Cc1cccc(NC(=O)CSc2ncnc3nc[nH]c23)c1	-2	13	2881	0	-6	7	12
Cc1ccc(N2C(=O)N3[C@H](c4ccc(F)cc4)[C@@H]4C(=O)N(C5CCCCC5)C(=O)[C@@H]4[C@]3(Cc3ccccc3)C2=O)cc1	-1	-33	4692	x	x	x	x
COc1ccc(NS(=O)(=O)c2cccc(C(=O)NNC(=O)c3ccc(O)c(Cl)c3)c2)cc1	x	-9	2740	14	4	3	11

# Next part
SMILES,BJeLR lethal,PrP 5UTR inh,Autofluor counter,Sa ugtP lethal,Mtb hypoxia inh,Mtb hypoxia inh growth,Sa RN4220 lethal
CCN(CC)C(=O)c1ccc2c(=O)n(Cc3ccc4c(c3)OCO4)c(=S)[nH]c2c1,2,-7,3321,15,14,8,-4.8
Cc1cccc(C)c1NC(=O)CN(C)CC(=O)N(C)CC(=O)Nc1ccccc1Br,x,-1,3388,-2,9,15,1.6
O=C(NCCCN1CCOCC1)Nc1ccc(Cc2ccc(NC(=O)NCCCN3CCOCC3)cc2)cc1,0,0,2417,2,11,4,1.4
COC(=O)CCCCCc1ccc(C(C)=O)s1,7,-11,5953,1,x,x,2.4
COc1ccc(-c2cn[nH]c2N)c(OC)c1,4,-27,17696*,24,3,2,1.0
CCN(C(=O)CN1CC(C)OC(C)C1)c1c(N)n(Cc2ccccc2)c(=O)[nH]c1=O (stereo not drawn),8,-20,3215,-1,17,12,8.7
O=S(=O)(c1ccc(Br)cc1)N1CCN(c2ccccc2)CC1,0,-8,3428,5,14,4,4.5
CCN(C(=O)COC(=O)Cc1c[nH]c2ccccc12)c1c(N)n(Cc2ccccc2)c(=O)[nH]c1=O,0,0,4381,1,5,-1,0.9
O=C1C=C(c2ccc(Oc3ccccc3)cc2)CC(c2ccc3c(c2)OCO3)C1 (stereo not drawn),x,x,x,22,5,5,-1.1
O=c1ccc(-c2nc3ccccc3n2Cc2ccccc2Cl)c[nH]1,-5,-17,2779,6,7,0,3.1
COC(=O)C1=C(c2ccccc2)CC2CCC1N2C(=O)NCc1ccc(C(F)(F)F)cc1 (stereo not drawn),x,x,x,17,11,12,2.4
Cc1sc(C(=O)NCc2cccnc2)c2nc(C)n(CC(=O)NCc3cccnc3)c(=O)c12,-25,-24,9507,-3,2,5,3.1
COc1ccc(-c2c(C#N)c(N)nc3c2c(=O)n(C)c(=O)n3C)cc1,0,-10,3238,-4,9,10,-8.4
Cc1cc(C(=O)N/N=C/c2ccc(-c3ccccc3Cl)o2)n[nH]1,-11,-19,1970,x,x,x,x
CC(=O)COC(=O)CCc1nc2ccccc2[nH]c1=O,3,-3,6760,8,8,6,2.2
Cc1ccc(N2C(=S)NC3c4ccccc4OC2(C)C3C(=O)N(C)C)cc1 (stereo not drawn),-2,-17,4235,7,9,2,5.6
N#CC1(c2ccccc2)CCN(C2CC(=O)N(c3ccc(F)cc3)C2=O)CC1 (stereo not drawn),-9,-10,2164,9,1,-3,2.5
O=c1cnc(-c2ccc(Cl)cc2)cn1O,x,-18,2522,1,-5,-4,1.6
Cc1nn2c(C)nc3sc4c(c3c2nc1=O)CC(C)(C)OC4,-5,-20,25222*,8,2,2,7.8
COc1ccccc1CNS(=O)(=O)c1ccc(Br)s1,3,4,3743,6,0,8,11
C=CCOc1ccc(CN(C)c2ccc(S(=O)(=O)N3CCN(C)CC3)cc2[N+](=O)[O-])cc1,x,-13,2950,7,2,1,3.8
COc1ccc(-c2ccc(CCC(=O)O)n2Cc2ccco2)cc1,-4,-20,4118,4,2,1,2.4
COc1ccc(CC(=O)Nc2ccc(-c3cn4ccccc4n3)cc2)cc1OC,1,-25,3316,x,x,x,x
COC(=O)c1cccc(Nc2c3c(nc4ccccc24)CCC3)c1,50,-28,4450,-7,16,1,-4.0
CCCc1c(C(=O)NN=Cc2cccc(OCc3ccc(F)cc3)c2)nnn1-c1nonc1N,x,x,x,-2,4,10,5.0
# The listing continues:
SMILES,BJeLR lethal,PrP 5UTR inh,Autofluor counter,Sa ugtP lethal,Mtb hypoxia inh,Mtb hypoxia inh growth,Sa RN4220 lethal
O=C(Nc1ccc(F)cc1F)c1cc2n(n1)C(C(F)(F)F)C1CCCCC1N2 (stereo not drawn),2,-22,3472,-6,x,x,1.6
COc1ccc2c(c1)oc(=O)c1cc(OC)ccc12,4,-44,4843,-8,x,x,4.2
CCN1CCCC1CNC(=O)c1cc(N)ccc1OC (stereo not drawn),-6,x,x,8,6,4,4.2
CSCC[C@H](NC(=O)NCc1ccccc1F)C(=O)O,1,-14,2406,x,x,x,x
O=C1NC(=S)S/C1=C\c1ccc2ccccc2c1,0,-19,3716,x,x,x,x
O=C(COc1ccc(Br)cc1Cl)NC(=O)NCc1ccccc1,0,-34,2130,-5,-4,-7,1.2
COc1ccccc1CNC(=O)C(Cc1c[nH]c2ccccc12)NC(=O)OCc1ccccc1 (stereo not drawn),17,6,2457,1,-5,4,6.0
COc1cc(NC(=S)NCCO)c(OC)cc1Cl,-2,-20,x,-1,-6,-14,-1.5
CC(=O)Nc1cccc(C(C)=NNS(=O)(=O)c2ccccc2)c1,x,x,x,13,-4,-3,2.4
CC(=O)NC(CC(=O)Nc1cc(Cl)ccc1-n1cncn1)c1ccccc1 (stereo not drawn),-5,-12,x,7,-1,7,-0.8
CC(C(=O)Nc1ccc2c(c1)OCCO2)N(C)Cc1c(F)cccc1Cl (stereo not drawn),3,-18,5679,-5,-7,3,1.9
COc1cc(NC(=O)CSc2ccc(-c3cccnc3)nn2)cc(OC)c1,-1,-31,6394,3,7,0,-0.2
COc1cccc(OC)c1C(=O)NC(=S)Nc1ccc2oc(-c3ccncc3)nc2c1,9,-11,2512,19,8,-6,23
O=C1/C(=C/c2cccs2)NC(=S)N1C1CC1,-1,-13,2069,1,-2,-15,4.4
O=S(=O)(C=Cc1ccccc1)N1CCN(Cc2ccccc2)CC1,x,x,x,5,14,13,1.2
COc1cc(OC)c(OC)cc1/C=C1/C(=O)NC(=O)N(Cc2ccccc2)C1=O,-2,3,3402,0,-2,0,-0.5
CCCn1nc(NC(=O)C2CCCO2)c2cc3cc(C)ccc3nc21 (stereo not drawn),6,-16,21148*,-11,1,13,-0.4
CC(=O)c1c(C)[nH]c(C(=O)NC2CCSc3ccccc32)c1C (stereo not drawn),-2,2,4588,3,9,-5,2.9
COc1ccc(C=NN2CCN(c3ccccc3)CC2)cc1Br,x,x,x,2,7,1,-2.5
COc1cccc(C(=O)c2c(C)c(CCC#N)n3ccccc23)c1OC,3,-13,4414,9,0,6,6.1
Cc1noc(C)c1CCC(=O)NC1CCCN(Cc2ccc(CC(C)C)cc2)C1 (stereo not drawn),-1,-18,6917,4,-4,-2,2.5
CSCCC(NS(=O)(=O)c1ccc2c(c1)OCCO2)C(=O)N(C)Cc1ccc(F)cc1 (stereo not drawn),-4,-6,u,4,2,3,1.8
CN(CC(=O)Nc1ccc(Cl)c(C(F)(F)F)c1)C(=O)/C=C/c1ccco1,8,-5,2458,38,5,4,4.6
CCOC(=O)c1[nH]c(C)c(/C(O)=C2\C(=O)C(=O)N(CCN(C)C)C2c2ccc(C)o2)c1C (stereo not drawn),1,-3,21142*,7,3,9,2.3
CC(C)C[C@H](NC(=O)NCc1ccccc1Cl)C(=O)O,-13,x,8860,1,6,8,7.8
# More structures follow.
SMILES,BJeLR lethal,PrP 5UTR inh,Autofluor counter,Sa ugtP lethal,Mtb hypoxia inh,Mtb hypoxia inh growth,Sa RN4220 lethal
Cc1cccc(N(CC(=O)NCCSc2ccccn2)S(=O)(=O)c2ccccc2)c1,7,-5,10308,-1,4,-7,4.8
O=C(c1cc(-c2cccc(Cl)c2)on1)N1CCN(c2ccc(F)cc2)CC1,7,-6,2865,-8,-10,-7,-2.8
CNc1nc(SCC(=O)Nc2ccc(Cl)c(Cl)c2)nc(N2CCOCC2)n1,9,-15,5941,0,14,-5,0.7
CN(C(=O)COC(=O)c1cc2ccccc2cc1O)c1ccccc1,x,-36,3721,9,2,-6,-0.6
COc1cc(S(=O)(=O)N(Cc2ccc(C)cc2)C2CCCCC2)ccc1-n1cnnn1,0,-13,8165,-18,11,6,2.4
CCCCN(C)S(=O)(=O)c1ccc(C(=O)Nc2nnc(-c3ccco3)o2)cc1,-6,-29,2573,21,4,-2,41
COc1cc(-c2cc(C(=O)N3CCCCCC3)c3ccccc3n2)cc(OC)c1OC,x,-7,4767,4,5,2,2.1
CCOC(=O)C1=C(N)Oc2cc(C)oc(=O)c2C1c1cccnc1 (stereo not drawn),6,-9,2373,23,-7,1,21
CC(C)(C)NS(=O)(=O)c1cnc(Cl)c(Cl)c1,6,-27,x,-11,1,8,-7.5
CC(C)c1cc(NCCCN2CCOCC2)n2c(nc3ccccc32)c1C#N,-8,-26,10101,-5,17,8,3.2
